Mtb hypoxia rep: PubChem AID 1159583 | M. tuberculosis hypoxia-regulated fluorescent reporter, fluorescence | fluorescence inhibition, % (no concentration beside the values) | 0.1% of 300,000 active;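 active means 35 to 45% if threefold the growth effect, above 45% if 1.5-fold the growth effect; inactive means the rest, general growth blockers included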;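 further: wells of about 50 µL received 100 nL stock; 0% = vehicle wells and 100% = reference inhibitor wells; whole bacteria with a GFP reporter of the hypoxia response; strong numbers were not always called active; many hits fall short of the cut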
Autofluor counter: flagged as autofluorescent in microsphere protease counterscreen; compound autofluorescence counterscreen, microsphere flow cytometry; hits give high values; fluorescence intensity (concentration not given with the values); 3.1% of 360,000 active;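 active means at least 3 SD above the mean of all compounds, about 16000 in these data; inconclusive means too few beads counted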;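 further: 100 nL of 1 mM stock went into each well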
BJeLR viability: MLPCN primary cell-based screen for lethality selective to Ras in HRASV12 cells | 0.17% of 300,000 active | BJeLR (HRASV12) viability, CellTiter-Glo ATP luminescence, 48 h; reference of the scale not given here | AID 1554, 2009 | inhibition, % (no concentration beside the values);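 active means replicate mean above 50%; inconclusive means above 50% but judged a plate artefact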;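 further: 50 nL library stock added to about 25 µL; numbers are from one replicate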
PrP 5UTR inh: inhibition of PrP 5' UTR reporter expression; cell-based PrP 5' UTR mRNA reporter, plate reader; inhibition, % (concentration not given with the values); 0.35% of 340,000 active; AID 488862, 2010;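 active means every replicate at 50% or more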;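 further: 0 = median of the neutral control wells; tested in H4 reporter cells; numbers are from one replicate; inactives centre near -14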
ugtP null kill: growth inhibition of ugtP-null S. aureus, primary screen, RN4220 ugtP deletion, OD600 | 0.54% of 330,000 active | 16 h; some inactives read as strong as hits | growth inhibition, % (concentration not given with the values);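 active means z-score under -3 and OD600 up to 0.15 on both plates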;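 further: plate controls were untreated wells for no effect and antibiotic for full effect; wells of about 80 µL received 100 nL stock; the first replicate is given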
RN4220 kill: growth inhibition of S. aureus RN4220, primary screen, OD600; 16 h; inhibition, % (test concentration not listed); 0.33% of 330,000 active; AID 1259311, 2017;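 active means z-score of -3 or lower and OD600 up to 0.18 on both plates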;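 further: plate controls were untreated cells for no effect and reference antibiotic for full effect; stock transfer was 100 nL into about 80 µL; one replicate is shown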
Mtb hypoxia rep growth: second read-out of Mtb hypoxia rep, no call of its own (marks repeat the call); growth inhibition, %; measured here: M. tuberculosis growth (absorbance);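 0% = vehicle and 100% = reference antibiotic; read after six days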
Numbers without * were called inactive; ? = inconclusive; . = no result given.

Compound	Mtb hypoxia rep	Mtb hypoxia rep growth	Autofluor counter	BJeLR viability	PrP 5UTR inh	ugtP null kill	RN4220 kill
CC(=O)c1ccc(NC(=S)N2CC(C)CC(C)C2)cc1 (configuration not stated)	4	5	2385	10	-23	-3	1.1
Cc1cc(SCC(=O)Nc2cccnc2Cl)nc2ccccc12	0	16	4653	1	-14	15	2.7
c1ccc(OCCSc2nnc3sc4ccccc4n23)cc1	-2	8	12613	-7	37	3	9.5
O=C1CCC(=O)N1c1nc2nc(-c3ccccc3)cc(-c3ccccc3)n2n1	.	.	3246	-15	-11	8	2.3
C[C@H](CO)N1C[C@H](C)[C@@H](CN(C)C(=O)Nc2ccc3c(c2)OCO3)Oc2ccc(NS(=O)(=O)c3ccc(F)cc3)cc2C1=O	-7	1	3638	.	-3	0	1.2
O=C(CCOc1ccccc1)Nc1cccc(S(=O)(=O)Nc2ccccc2Cl)c1	2	-2	2216	-11	-15	-1	-5.3
CC1(C)NC(=O)N(CC(O)CN(c2ccccc2)S(=O)(=O)c2ccc([N+](=O)[O-])cc2)C1=O (configuration not stated)	9	0	4956	-3	-10	5	5.4
O=C(CN(C(=O)Cn1nnc(-c2cccs2)n1)c1cnc2ccccc2c1)NCC1CCCO1 (configuration not stated)	8	2	5856	6	-32	11	-4.7
CCC(=O)NC(Nc1sc2c(c1C(=O)OC)CCN(C)C2)(C(F)(F)F)C(F)(F)F	2	9	3226	-5	17	-11	3.5
O=C(Nc1cccc(Cl)c1)Nc1ccon1	7	-1	6059	-4	-2	-15	-3.3
Cc1cc(C=O)c(C)n1C1CC1	8	6	4247	-1	-10	3	5.8
O=C(CSc1nc2ccccc2c(=O)n1-c1cccc(C(F)(F)F)c1)NC1CC1	.	.	4743	2	-4	13	-0.9
COc1cc(/C=C/C(=O)OC2CC3CCC2(C)C3(C)C)ccc1O (configuration not stated)	.	.	5225	-3	-13	20	1.0
Cc1ccccc1N=C/C=C1/C=C(c2ccccc2)OC(C)(C)O1	8	3	8927	1	-2	3	3.9
CCCCCCn1cnc2c(c1=O)c1nc3ccccc3nc1n2/N=C/c1ccco1	.	.	3278	-2	-9	.	.
CCc1ccc(C(O)(CC)C(CN2CCOCC2)c2ccccc2)cc1 (configuration not stated)	11	8	3820	11	-20	19	5.6
CN(C)C(=S)Nc1ccc(Cl)cc1	15	2	3855	2	-27	-1	2.6
COc1cc(OC)c2ccc(=O)oc2c1C(CCN1CCCC(C)C1)c1ccc2c(c1)OCO2 (configuration not stated)	11	6	3052	-1	-10	1	1.9
COc1cc(C=O)ccc1OCc1ccccc1Br	7	8	2420	-2	-48	8	13
Cn1c(-c2ccc(F)cc2)cnc1NCc1ccc(F)cc1F	1	-2	.	4	-19	8	2.8

Another view of four compounds above:
Cc1cc(C=O)c(C)n1C1CC1
  Mtb hypoxia rep = 8
  Mtb hypoxia rep growth = 6
  Autofluor counter = 4247
  BJeLR viability = -1
  PrP 5UTR inh = -10
  ugtP null kill = 3
  RN4220 kill = 5.8

O=C(CN(C(=O)Cn1nnc(-c2cccs2)n1)c1cnc2ccccc2c1)NCC1CCCO1 (configuration not stated)
  Mtb hypoxia rep = 8
  Mtb hypoxia rep growth = 2
  Autofluor counter = 5856
  BJeLR viability = 6
  PrP 5UTR inh = -32
  ugtP null kill = 11
  RN4220 kill = -4.7

CCC(=O)NC(Nc1sc2c(c1C(=O)OC)CCN(C)C2)(C(F)(F)F)C(F)(F)F
  Mtb hypoxia rep = 2
  Mtb hypoxia rep growth = 9
  Autofluor counter = 3226
  BJeLR viability = -5
  PrP 5UTR inh = 17
  ugtP null kill = -11
  RN4220 kill = 3.5

C[C@H](CO)N1C[C@H](C)[C@@H](CN(C)C(=O)Nc2ccc3c(c2)OCO3)Oc2ccc(NS(=O)(=O)c3ccc(F)cc3)cc2C1=O
  Mtb hypoxia rep = -7
  Mtb hypoxia rep growth = 1
  Autofluor counter = 3638
  BJeLR viability = .
  PrP 5UTR inh = -3
  ugtP null kill = 0
  RN4220 kill = 1.2

Continuation:
Compound	Mtb hypoxia rep	Mtb hypoxia rep growth	Autofluor counter	BJeLR viability	PrP 5UTR inh	ugtP null kill	RN4220 kill
COc1ccc(CCN(C)C(=O)C2CCCN(C3CCN(Cc4ccccc4)CC3)C2)cc1OC (configuration not stated)	2	-2	5483	6	-4	10	3.7
Fc1ccc(Nc2nnc(C(F)(F)F)s2)cc1	-9	8	5181	-8	-7	3	1.2
CN(C)c1ccc(/C=N/OC(=O)Nc2ccccc2Cl)cc1	.	.	5506	21	-34	.	.
FC(F)(F)c1cnc(-c2cnc(-c3ccccn3)nc2)c(Cl)c1	0	-9	4227	3	-23	1	1.6
Cc1cc(Nc2cc(C)on2)n2ncnc2n1	.	.	5316	7	2	8	1.4
CCNC(=O)C(=O)NCC1OCCCN1S(=O)(=O)c1cccs1 (configuration not stated)	-1	10	2503	-3	-14	1	2.4
COc1ccc(OC)c(N=c2oc3cc(O)ccc3cc2C(N)=O)c1	0	0	?	3	-12	-1	7.4
CCOC(=O)c1c(C2CC2)csc1NC(=O)COC(=O)CCS(=O)(=O)c1ccc(C)cc1	2	-2	9396	1	-21	16	9.6
CCN(CC)c1ccc(C=NNC(=S)NC)c(O)c1	-1	12	.	.	.	-9	1.9
COC(=O)C1=C(C)N(CCCC(=O)O)C(=O)NC1c1ccc(C#N)cc1 (configuration not stated)	2	8	3414	-3	-6	-1	2.9
CCOC(=O)Cc1csc(NC(=O)c2cc(C)cc(C)c2)n1	-3	6	3621	-5	-12	-3	-1.7
O=C(c1ccc(Br)o1)N1CCN(C23CC4CC(CC(C4)C2)C3)CC1	5	0	6261	2	-15	2	2.5
CCc1c(C)sc(NC(=O)C2CC(c3c(F)cccc3Cl)=NO2)c1C#N (configuration not stated)	3	2	3780	-5	-4	7	3.9
CC(=O)c1cn(CC(=O)Nc2cccc(C)c2C)c2ccccc12	-9	-5	3768	-13	-28	-3	-0.4
Cc1ccc(NC(=O)COc2ccccc2C(N)=O)cc1S(=O)(=O)N1CCCCCC1	-3	5	.	.	-18	-25	31
O=C(CCN1C(=O)/C(=C/C=C/c2ccccc2)SC1=S)Nc1cccnc1	-3	-4	2586	2	-79	-4	5.1
CN(C1=C(N2CCCCC2)C(=O)c2ccccc2C1=O)c1ccccc1	14	3	4696	-7	-6	7	0.6
COc1ccc(S(=O)(=O)c2ccccc2)cc1NC(=O)c1c(F)cccc1F	5	1	3480	-3	-15	9	4.9
O=C(O)c1cnc(-c2ccccc2)nc1Sc1ccc(Cl)cc1Cl	1	5	9566	2	-18	5	-20
COc1ccc(Br)cc1/C=N/Nc1ccc(Cl)c(C(=O)O)c1	.	.	3793	2	-19	.	.

2 of the compounds above, with each value named:
> O=C(O)c1cnc(-c2ccccc2)nc1Sc1ccc(Cl)cc1Cl
  Mtb hypoxia rep = 1
  Mtb hypoxia rep growth = 5
  Autofluor counter = 9566
  BJeLR viability = 2
  PrP 5UTR inh = -18
  ugtP null kill = 5
  RN4220 kill = -20

> CN(C)c1ccc(/C=N/OC(=O)Nc2ccccc2Cl)cc1
  Mtb hypoxia rep = .
  Mtb hypoxia rep growth = .
  Autofluor counter = 5506
  BJeLR viability = 21
  PrP 5UTR inh = -34
  ugtP null kill = .
  RN4220 kill = .

Next compounds.
Structure	Mtb hypoxia rep	Mtb hypoxia rep growth	Autofluor counter	BJeLR viability	PrP 5UTR inh	ugtP null kill	RN4220 kill
N/C(=N\OC(=O)C(c1ccccc1)c1ccccc1)c1cccnc1	3	1	11168	-5	-26	14	2.1
Cc1nc(NC(=O)c2ccccc2)sc1C	2	-5	3272	-5	-54	-1	0.0
Cc1ccc(N(C(C)C(=O)O)S(=O)(=O)c2cccnc2)cc1 (configuration not stated)	.	.	6369	-2	-8	6	-1.3
Cc1[nH]c2ccccc2c1C(=O)C(=O)NCc1cccs1	13	0	2492	7	-23	-1	-3.4
COc1cccc(C(C(=O)NC2CCCCC2)N(C(=O)c2cccs2)c2ccc3c(c2)OCO3)c1 (configuration not stated)	-3	-2	2053	2	-3	11	6.0
COC(=O)Nc1ccc(S(=O)(=O)Nc2cccc3ccccc23)cc1	3	6	21995*	2	-11	-14	9.6
CC1(C)CC(=O)C(C=NCCCO)=C(O)C1	-2	-11	5020	-1	-11	7	4.4
CC(C)(C)OC(=O)C1C(=O)CC(C)(O)C(C(=O)OC(C)(C)C)C1c1cccnc1 (configuration not stated)	0	4	4262	-3	-2	-7	-4.0
O=C(NCc1ccc2c(c1)OCO2)C1CCN(S(=O)(=O)c2ccc(Br)s2)CC1	.	.	3448	-2	-6	10	-4.3
CC(CCc1ccccc1)C(=O)NO (configuration not stated)	6	4	23384*	-3	-26	-4	6.0
Cc1ccc(C(OC(=O)c2ccco2)C(=O)NC(C)(C)C)cc1 (configuration not stated)	4	-4	.	-4	-17	2	3.4
CCCCNC(=S)Nc1ccc2cn[nH]c2c1	.	.	7354	10	-18	4	4.5
Cc1cccc(-c2nsc(SCC(=O)Nc3nccs3)n2)c1	20	21	7413	-8	-12	0	3.0
NC(=O)Cc1ccc(C(=O)c2ccc(Cl)cc2Cl)s1	9	6	4638	-1	-37	5	5.5
O=C(NC1CCCC1)C(c1cccs1)N(C(=O)c1ccno1)c1ccccc1 (configuration not stated)	-6	0	4414	6	4	6	6.5
O=C(NN=Cc1cccc(Cl)c1)c1ccc(Cn2cc(Br)c([N+](=O)[O-])n2)o1	-1	-3	.	.	.	0	-1.2
CCOC(=O)C1CC(C)=C(C)CC1C(=O)O (configuration not stated)	8	8	3889	-6	-4	3	5.4
CCCNC(=S)Nc1ccc2nc(-c3ccccn3)c(-c3ccccn3)nc2c1	14	2	21151*	-15	-12	5	1.4
CSC(=Nc1ccccc1)Nc1ccccc1	11	10	.	-3	-6	13	6.4
Cc1csc(=O)n1CC(=O)OCC(=O)Nc1ccccc1C(C)C	3	2	3373	.	-15	8	7.4
CCc1ccc(OCCCC(=O)Nc2ccc(S(N)(=O)=O)cc2)cc1	8	12	4520	1	3	15	4.5
COc1ccccc1NC(=O)C1=C(C)NC(=O)NC1c1ccc(C)s1 (configuration not stated)	-9	3	4223	8	-41	10	4.8
Cc1ccc(S(=O)(=O)N2CCN(C(=O)c3ccccc3-c3nc4ccccc4s3)CC2)c(C)c1	1	-8	4877	-1	-6	0	3.4
COc1ccc(/C(O)=C2/C(=O)C(=O)N(CC3CCCO3)C2c2cccc(O)c2)cc1 (configuration not stated)	0	1	4103	9	-2	24	23
O=C(COC(=O)Cc1ccccc1F)NNC(=O)c1ccc(Cl)cc1	-4	5	5993	-7	-8	-3	1.4

Source: PubChem (several laboratories)

This is a random part of the collection; any-hit rate near 4%.
